From PubChem BioAssay
CtBP-E1A inh: qHTS Assay for Inhibitors of the CtBP/E1A Interaction. 0.49% of 340,000 active. activity change, % (concentration not given with the values). CtBP / adenovirus E1A interaction (AlphaScreen). AlphaScreen GST-E1A/His-CtBP binding, 1536-well; active compounds read low; control for the full effect not named in the record. AID 651724, 2012; in the data active means activity change below about -65%; inconclusive means about -30% to -65%; inactive means above about -30%; note: % is set by controls: 0 for no effect and ±100 for the full control effect
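GST-E1A and His-tagged CtBP (125 nM each as 5X stock) were preincubated with pin-transferred compound for 2 h at 37 °C in the dark, then glutathione donor and nickel acceptor beads were added for 1 h before AlphaScreen reading.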
TRPML1 inh: qHTS for Inhibitors of the Human Mucolipin Transient Receptor Potential 1 (TRPML1); activity change, negative = inhibition, % (test concentration not listed); 0.02% of 390,000 active; AID 624415, 2012; TRPML1-inducible cells, Ca2+ dye fluorescence, FDSS; active compounds read low; inhibition of EC80 agonist-evoked calcium signal; Mucolipin-1 (Homo sapiens), Q9GZU1; in the data active means activity change below about -50%; inconclusive means about -30% to -50%; inactive means above about -30%;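 note: stimulus is agonist 54-4 at its EC80 concentration; % is set by controls: 0 for no effect and ±100 for the full control effect; compound concentration not given in the record; the text of the record puts the active cut at -80%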
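TRPML1-DL cells, Tet-induced overnight (~16 h, 37 °C) at 1,500 cells/well, were loaded with Ca8 no-wash dye plus quencher for 45-90 min at room temperature. Compounds were pinned during FDSS kinetic reading; agonist 54-4 at EC80 (4 uM final) then added.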
Six1-Eya2 inh: qHTS Assay for Inhibitors of the Six1/Eya2 Interaction; Homeobox protein SIX1 (Homo sapiens) + Protein phosphatase EYA2 (Homo sapiens), …; AlphaScreen GST-Six1/His-Eya2 binding, biochemical; active compounds read low; control for the full effect not named in the record; 0.56% of 360,000 active; activity change, % (concentration not given with the values); AID 651725, 2012; in the data active = activity change below about -65%; inconclusive = about -30% to -65%; inactive = above about -30%; note: % is set by controls: 0 for no effect and ±100 for the full control effect
Target sequence (O00167 whole entry, looked up): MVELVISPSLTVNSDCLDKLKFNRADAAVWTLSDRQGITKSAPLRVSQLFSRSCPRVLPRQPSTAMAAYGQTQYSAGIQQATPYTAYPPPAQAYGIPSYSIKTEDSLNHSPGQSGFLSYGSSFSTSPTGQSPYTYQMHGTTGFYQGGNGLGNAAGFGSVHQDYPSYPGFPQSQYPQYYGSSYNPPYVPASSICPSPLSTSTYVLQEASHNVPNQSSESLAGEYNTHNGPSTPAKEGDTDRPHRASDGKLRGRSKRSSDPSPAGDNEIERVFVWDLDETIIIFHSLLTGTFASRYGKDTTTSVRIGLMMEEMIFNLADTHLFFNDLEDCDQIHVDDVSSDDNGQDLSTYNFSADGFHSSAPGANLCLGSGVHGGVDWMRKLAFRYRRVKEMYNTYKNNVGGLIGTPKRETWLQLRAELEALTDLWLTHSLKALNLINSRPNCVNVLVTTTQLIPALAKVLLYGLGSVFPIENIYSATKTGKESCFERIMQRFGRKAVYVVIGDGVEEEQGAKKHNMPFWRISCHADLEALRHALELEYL
Target sequence (Q15475 whole entry, looked up): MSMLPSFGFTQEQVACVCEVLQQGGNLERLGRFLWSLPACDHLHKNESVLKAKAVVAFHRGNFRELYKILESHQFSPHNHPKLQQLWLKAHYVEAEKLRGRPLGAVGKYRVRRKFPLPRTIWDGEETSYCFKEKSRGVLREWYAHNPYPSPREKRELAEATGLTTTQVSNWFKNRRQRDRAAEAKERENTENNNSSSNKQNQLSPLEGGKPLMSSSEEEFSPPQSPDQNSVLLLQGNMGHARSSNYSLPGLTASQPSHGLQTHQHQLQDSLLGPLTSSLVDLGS
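Compounds are tested against tagged Six1 and Eya2 proteins bridged by glutathione donor and nickel acceptor beads; after a one-hour incubation at 37 °C without light, AlphaScreen emission is recorded.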
PINK1 expr mod: A Quantitative High throughput Screen to Identify Chemical Modulators of PINK1 Expression; Potency, µM (doses to about 76.6 µM), for inactives: at the top dose activation (PINK1 increase), actives largely listed as activators; PINK1 immunofluorescence, high-content cytometry, 24 h; 0.2% of 410,000 active; active = well fitted activation curve with a large enough effect; inconclusive = small, poorly fitted or top-dose-only effect; inactive = flat fitted curve, though single readings scatter; cell line not stated here;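 note: potency is the fitted concentration of half-maximal effect; % of control where 0% means no effect; nearly all actives have a fitted effect of over 65% in size; a mitochondrial uncoupler was the plate control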
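Cells are seeded, rested 12 hours, then given compound at five concentrations or DMSO for 24 hours. After fixation, blocking and antibody staining, PINK1 amount and mitochondrial localization are scored; CCCP serves as control.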
D2 ag: Beta-Arrestin HTS for Positive Allosteric Modulators of the Human D2 Dopamine Receptor: Agonists | D(2) dopamine receptor (Homo sapiens), P14416 | DiscoveRx PathHunter D2 beta-arrestin, luminescence, 90 min; 100% = 57 uM dopamine signal | activation, % (test concentration not listed) | 0.084% of 360,000 active; in the data active = activation above about 40%; inconclusive = about 15% to 40%; inactive = below about 15%; note: compound concentration not given in the record; the text of the record calls up to 30% inactive
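DiscoveRx PathHunter D2 beta-arrestin cells (2,100/well) attached overnight, then compound-stimulated 90 min at 37 C in HBSS/10 mM HEPES/0.1% Tween-20 buffer; beta-galactosidase complementation read by luminescence after 1 h at ambient temperature. Dopamine 57 uM final (EC100) as control.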
TRPML1 ag: qHTS for Agonists of the Human Mucolipin Transient Receptor Potential 1 (TRPML1). Mucolipin-1 (Homo sapiens), Q9GZU1. TRPML1-expressing cells, Ca2+ dye fluorescence, FDSS; host cell line not named in the record; reference of the full effect not given here. activation, % (no concentration beside the values). 0.12% of 410,000 active; in the data active = activation above about 50%; inconclusive = about 30% to 50%; inactive = below about 30%; note: 0% is about no effect; the text of the record puts the active cut at 80%
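Agonist activity was taken from a 110 s kinetic Ca2+ dye read on the FDSS after pinning compounds onto TRPML1-DL cells. The cells were seeded at 1,500/well with Tet inducer, incubated about 16 h, then dye-loaded at room temperature.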
Active calls of the source: *; ? = inconclusive; . = no result given; & = joins results of further samples; [ ] = another dose, or the depositor's remark.

SMILES	CtBP-E1A inh	TRPML1 inh	Six1-Eya2 inh	PINK1 expr mod	D2 ag	TRPML1 ag
CC(=O)N1CCCc2cc(S(=O)(=O)N3CCCC(C(=O)Nc4ccc(F)cc4F)C3)ccc21 (stereo not drawn)	.	9	.	-2.1%	.	1.2
CC(Sc1ccc2c(c1)OCCO2)C(=O)Nc1ccc2c(c1)OCO2 (stereo not drawn)	-2	-1	-1	1.0%	-0.5	-0.3
CCCCCCNc1c([N+](=O)[O-])cc(C)cc1[N+](=O)[O-]	?	-6	?	9.2%	0.0	1.0
O=C(c1ccc(Cl)cc1Cl)N1CCN(c2ccc(N3CCOCC3)nn2)CC1	3	15	-5	-0.2%	-3.7	-0.5
Cc1ccc(C(=O)NCc2ccc3c(c2)OCO3)cc1C	.	-4	3	1.6%	-3.8	0.7
CC(C)[C@@H](C(=O)N[C@@H](Cc1ccccc1)C(=O)O)N1C(=O)N2CCc3c([nH]c4ccccc34)[C@@]2(C)C1=O	6	.	0	-0.7%	-1.3	.
COc1ccc(C2C(C(=O)N3CCN(c4ccccc4)CC3)c3ccccc3C(=O)N2C)cc1OC (stereo not drawn)	4	7	0	-0.5%	-2.1	-0.3
CC(C)(C)c1csc(SCC(=O)Nc2ccc(Cl)cn2)n1	24	-9	14	32%[38.3 µM]	-3.7	0.2
CCc1ccccc1Nc1nc(N)nc(COC(=O)c2c(C)noc2C)n1	0	-3	1	1.7%	-3.7	0.5
Cc1cc(C)nc(SC2=CS(=O)(=O)c3ccccc32)n1	0	21	0	8.4%	-5.1	-1.0
O=C(NCc1cccs1)c1cnc2ccccn2c1=O	2	3	0	5.8%[38.3 µM]	1.6	0.3
CN(Cc1cc2cc(F)ccc2[nH]1)Cc1nc(-c2cnccn2)no1	0	8	4	-1.3%	-0.5	-0.6
COc1ccc(C(=O)Nc2nc3n(n2)C(c2ccc(F)cc2)C=C(c2ccc(Cl)cc2)N3)cc1 (stereo not drawn)	.	-3	.	-0.4%	.	16
COc1cccc(Cn2c(=O)n(-c3ccccc3C)c(=O)c3c2c2cc(C)ccc2n3C)c1	.	4	.	3.3%	.	0.7
CCOC(=O)N1CCN(C(=O)CCn2nc(-c3ccc(Cl)cc3)ccc2=O)CC1	-1	1	-3	-0.4%	-2.2	0.1
COc1ccccc1NC(=S)N1C2CCC1CC(NC(=O)NC13CC4CC(CC(C4)C1)C3)C2 (stereo not drawn)	3	-10	1	-3.4%[38.3 µM]	-3.1	5.2
COc1ccc(NS(=O)(=O)c2cccc(N3CC(O)=C(c4ccccc4)C3=N)c2)cc1	.	3	0	-1.1%	-0.6	0.9
Cc1cc(OCC(=O)Nc2ccc(CN3CCCCC3)cc2)ccc1Cl	5	17	2	3.1%	-3.2	1.5
CC(C)Oc1ccc(S(=O)(=O)N2CCOCC2)cc1NC(=O)C1=NN(c2ccccc2)C(=O)CC1	-1	1	-24	-6.0%	-8.4	2.5
COc1ccc(CC(N)c2csc(NC(=O)Nc3ccc(OC)cc3)n2)cc1 (stereo not drawn)	-29	.	-25	-1.4%	4.2	0.3
COc1ccc(C2CC(=O)N(CC(=O)NCC3CCCO3)c3ccccc3S2)cc1 (stereo not drawn)	-8	-7	5	2.2%	-4.2	-0.4
Cc1ccccc1S(=O)(=O)Nc1cccnc1	0	-2	31	-1.0%	-1.8	0.5
COCCn1c(SCC(=O)N2CCC(C)CC2)nc2c(c1=O)SCC2	21	7	6	-0.9%	-4.4	1.4
CC(C)c1ccccc1-n1cc[nH]c1=S	-6	3	1	1.0%	-3.2	-0.3
O=C(C1=C[C@H](c2ccccc2)C[C@H](OCc2ccc(CO)cc2)O1)N1CCN(Cc2ccc3c(c2)OCO3)CC1	-10	-6	-19	1.1%	1.2	1.4

Complete entries, quoted from the list. Values in the order: CtBP-E1A inh	TRPML1 inh	Six1-Eya2 inh	PINK1 expr mod	D2 ag	TRPML1 ag
Entry for `Cc1cc(OCC(=O)Nc2ccc(CN3CCCCC3)cc2)ccc1Cl` = 5	17	2	3.1%	-3.2	1.5
Entry for `COc1ccc(C(=O)Nc2nc3n(n2)C(c2ccc(F)cc2)C=C(c2ccc(Cl)cc2)N3)cc1` (stereo not drawn) = .	-3	.	-0.4%	.	16
Entry for `COCCn1c(SCC(=O)N2CCC(C)CC2)nc2c(c1=O)SCC2` = 21	7	6	-0.9%	-4.4	1.4
Entry for `CC(=O)N1CCCc2cc(S(=O)(=O)N3CCCC(C(=O)Nc4ccc(F)cc4F)C3)ccc21` (stereo not drawn) = .	9	.	-2.1%	.	1.2
Entry for `CC(C)[C@@H](C(=O)N[C@@H](Cc1ccccc1)C(=O)O)N1C(=O)N2CCc3c([nH]c4ccccc34)[C@@]2(C)C1=O` = 6	.	0	-0.7%	-1.3	.

Next part
SMILES	CtBP-E1A inh	TRPML1 inh	Six1-Eya2 inh	PINK1 expr mod	D2 ag	TRPML1 ag
CC(c1ccccc1)n1c(N2CCNCC2)nc2c1c(=O)[nH]c(=O)n2C (stereo not drawn)	-5	1	6	-0.2%	-2.2	0.1
Cn1c(/C(C#N)=C(\O)CN2CCN(Cc3ccccc3)CC2)nc2ccccc21	0	-3	-3	0.7%	-5.7	1.4
O=C(c1ccc(Cl)cc1)N1CCCC(C(=O)N2CCN(c3ccccc3)CC2)C1 (stereo not drawn)	.	-15	10	-0.4%	0.2	0.7
COc1cc(OC)cc(C(=O)N[C@H](C(=O)OCC(=O)Nc2ccc(C)cc2C)C(C)C)c1	8	-16	-13	6.2%	-1.6	-0.1
c1ccc(CNc2nc(NCc3cccs3)nc3ccsc23)cc1	-4	7	-7	?	-4.2	6.8
COc1ccc(S(=O)(=O)Nc2nc3c(s2)CCCC3)cc1	-16	-16	-2	-1.0%	3.4	1.2
CCN(CC(=O)NCc1ccc(F)cc1)Cc1nc2cc(Cl)ccc2c(=O)[nH]1	6	44	0	0.1%	-1.4	-0.5
COc1ccc(-c2cc(C(=O)Nc3ccc(C)c(N)c3)c3ccccc3n2)cc1	-11	2	1	0.7%	-4.4	1.1
Cc1ccc(C)c(N2CCN(CCCNC(=O)c3nnc(Cc4ccc(F)cc4Cl)o3)CC2)c1	.	17	.	1.2%	.	0.5
Cn1c(=O)c2c(nc3sccn32)n(C)c1=O	-1	14	-6	-1.3%	-3.8	0.2
CCc1ccc(CNC(=O)c2nn(-c3ccc(C)cc3)c(=O)c3c2c2ccccc2n3C)cc1	.	-16	.	1.6%	.	-0.6
Cc1nn(-c2ccccc2)c(Cl)c1C(=O)NCC(C)C	-4	-2	3	3.2%	-1.6	-0.2
CC1C(=O)N2CCCc3cc(NS(=O)(=O)c4ccc(F)cc4)cc1c32 (stereo not drawn)	-2	4	3	7.3%	3.1	-0.2
O=C(O)C1Cc2c([nH]c3ccccc23)C(c2ccc3c(c2)OCO3)N1 (stereo not drawn)	13	-15	-7	0.7%[38.3 µM]	0.3	-0.1
COc1ccccc1N(CC(=O)NCC1CCCO1)C(=O)CNS(=O)(=O)c1ccc(C)cc1 (stereo not drawn)	4	1	-1	13%[38.3 µM]	-0.9	20
CCOc1ccccc1C(=O)Nc1cccc2ccccc12	14	4	10	1.7%	3.1	1.3
Cc1ccc2c(c1)cc1c(=O)n(CC(=O)N3CCCCC3)nc(C)n12	.	13	.	0.1%	.	0.7
COC(=O)COc1ccc2cc(-c3ccccc3)c(=O)oc2c1	2	0	7	0.6%	-2.8	-0.2
COc1ccc(NC(=O)c2cc(S(=O)(=O)N3CCCCC3)c[nH]2)cc1Cl	22	-2&-12	10	17%&0.6%	-3.1	0.1&1.3
O=C(Cn1nnc(-c2ccccc2Cl)n1)N/N=C/c1ccc(-c2cccc(Cl)c2)o1	-2	-14	4	4.1%	-5.7	-0.3
COc1ccc(OC)c(C2=NS(=O)(=O)N(C)C(C(=O)NCc3cccs3)=C2)c1	-11	6	-3	0.9%	-9.5	7.2
CCCCc1c(C)nc2ccc(OC)cc2c1SCCC(=O)O	0	-4	-4	0.0%	0.9	1.0
COc1ccc(NC(=O)C2(C)CCN2Cc2cccc(OC)c2OC)cc1OC (stereo not drawn)	-19	.	-7	0.4%	0.9	-1.5
O=C(CN1C(=O)S/C(=C\C=C\c2ccccc2)C1=O)N1CCOCC1	0	2	-2	14%	-1.5	0.5
CNC(=O)N(O)C1N(c2ccccc2)C(=S)SC1(C)C (stereo not drawn)	-16	19	2	3.6%	-1.5	0.6

Next part:
SMILES	CtBP-E1A inh	TRPML1 inh	Six1-Eya2 inh	PINK1 expr mod	D2 ag	TRPML1 ag
COCCCN1C(=O)C(CC(=O)NCC2CCCCC2)CC(C(=O)N(C)C)=C1C (stereo not drawn)	4	9	3	1.6%	-7.5	-0.2
Cc1ccc([C@H]2N[C@]3(CCCN(Cc4ccc(Br)cc4)C3=O)[C@H]3C(=O)N(C)C(=O)[C@@H]23)cc1	-3	2	20	1.2%	-6.8	-0.3
O=C(c1cc(-c2ccccc2O)on1)N1CCOCC1	10	18	9	2.5%	-6.0	0.7
CC(C)(C)c1cc(OC(=O)C2CCCC2)ccc1O	-3	-8	0	1.6%	6.5	0.8
CCOC(=O)C1CCCN(C(=O)Cn2ncc3c4ccccc4n(Cc4ccc(F)cc4)c3c2=O)C1 (stereo not drawn)	.	-2	.	0.0%	.	1.0
NC(=O)COC(=O)c1cc(=O)[nH]c2ccc(S(=O)(=O)Nc3ccc(F)cc3)cc12	7	-1	-2	2.3%	-0.2	-0.4
O=C(CN1CCN(c2ccccc2O)CC1)Nc1cc(S(=O)(=O)N2CCCC2)ccc1Cl	-8	9	-5	-1.5%	3.8	0.7
COc1ccc(CONc2ncnc3nonc23)cc1[N+](=O)[O-]	.	49	-4	1.0%	-2.4	0.1
COC(C[C@@H]1O[C@@H]1[C@@H](O)[C@@H](C)OCc1ccccc1)OC	2	10	2	0.2%	-3.6	-0.4
CC1CC2(CCCCC2)Nc2c1ccc1ccccc21 (stereo not drawn)	-1	8	7	2.5%	-2.0	0.2
COCCNC(=O)C1Nc2ccc(C(F)(F)F)cc2C2C=CCC12 (stereo not drawn)	-14	5	-9	-0.4%	2.3	0.2
COCCn1c(SCC(=O)Nc2ncc(Cl)c(C)c2Cl)nc2ccccc21	5	2	-1	15%	-3.3	0.8
S=c1[nH]nc2n1CCCN2	1	1	-7	-1.5%	2.4	-0.2
CCOc1ccc(C(=O)NCC(=O)OCC(=O)Nc2ccc(C)c(S(=O)(=O)N(C)C)c2)cc1	-4	5	1	1.6%	-3.2	0.7
CCc1ccc[n+](-c2[nH]c(=O)sc2/C=N/N=C(\N)[O-])c1	10	24	-9	0.9%	-1.8	7.5
COc1cccc(NC(=O)CCC(=O)Nc2cccc(OC)c2)c1	8	-7	-7	0.5%	-0.3	0.4
O=C(O)CC/C(=N/NC(=O)CNC(=O)C(c1ccccc1)c1ccccc1)c1ccccc1	3	.	1	-0.5%	-3.4	.
O=C(COc1ccccc1Cl)NCCCNC(=O)c1ccncc1	5	9	9	-0.5%	-0.4	0.9
